FUS suppressor: rescues growth of FUS-expressing yeast | Potency, µM (highest dose often 76.6 µM), without a hit: at the top dose growth rescue (activation), actives largely listed as activators | actives 0.24% (n = 390,000) | S. cerevisiae FUS-expressing, growth rescue, OD600, 24 h | AID 1347120;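 further: potency means the concentration at half of the fitted maximal effect; plate controls were DMSO vehicle for no effect and reference control for full effect; nearly all actives have a fitted effect of over 55% in size; some results filed as inactive show a strong effect at the top dose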
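Yeast FUS proteinopathy model; galactose-induced FUS (2%), starting OD 0.005. Cpds in dilution series, 24hr, 30C, 99% humidity. Abs 600 nm growth. Pos ctrl CP55940 (top 92uM final); neg ctrl DMSO.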
PI5P4Ka inh: PI5P4K alpha (human) kinase inhibition; max response, %; actives 1.2% (n = 330,000); AID 652105; P48426; PI5P4Kalpha enzyme, ADP-Glo luminescence, 60 min; stronger effect = lower value; active means max response of -50% or lower; inconclusive means between -30% and -50%; inactive means -30% or higher; further: value at the top dose of about 77 µM; on the % scale 0 is the no-effect control and ±100 the full control effect
Target sequence (P48426 whole entry, looked up): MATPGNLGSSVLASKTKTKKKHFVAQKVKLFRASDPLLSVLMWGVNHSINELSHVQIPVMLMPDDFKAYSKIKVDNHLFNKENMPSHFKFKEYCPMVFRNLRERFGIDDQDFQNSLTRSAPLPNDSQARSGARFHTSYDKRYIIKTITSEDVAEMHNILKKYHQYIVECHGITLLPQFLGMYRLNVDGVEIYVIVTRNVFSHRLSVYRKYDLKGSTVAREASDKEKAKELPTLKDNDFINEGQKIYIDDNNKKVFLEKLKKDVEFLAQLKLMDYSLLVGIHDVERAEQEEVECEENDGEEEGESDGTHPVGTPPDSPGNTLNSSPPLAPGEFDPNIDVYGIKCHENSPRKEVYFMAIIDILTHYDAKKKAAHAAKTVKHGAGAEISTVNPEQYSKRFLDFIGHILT
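PI5P4Kalpha ADP-Glo assay; 5 microM ATP final; 60 min RT reaction; HEPES pH 7.4/EGTA/CHAPS, 5% DMSO; controls lacking substrate or enzyme; luminescent end-point.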
Abeta yeast res: compounds reversing amyloid beta toxicity in yeast; yeast expressing A-beta42, growth rescue, OD600, 48 h; response scale: 0% DMSO, 100% iron-clioquinol control; Potency, µM (top dose mostly 46.1 µM), for inactives: top-dose growth rescue, actives largely listed as activators; actives 0.063% (n = 410,000); AID 1347071; further: potency means the concentration at half of the fitted maximal effect; nearly all actives have a fitted effect of over 55% in size
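Yeast growth medium received pinned compounds, then yeast cells expressing toxic A-beta were added; plates incubated at 30 C for 48 hr. Growth read as absorbance at 600 nm, normalized to DMSO and equimolar FeCl3 plus clioquinol controls.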
IL-2 act: activators of IL-2; IL-2 activation reporter assay, cell-based qHTS; stimulated with anti-CD3/CD4/CD28 beads; in transgenic mouse T cells; AID 652025; activation, % (series mostly up to about 46 µM); actives 0.065% (n = 360,000); in the data active means activation above about 50%; inconclusive means mostly about 30% to 49%; further: 0% is about no effect
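Unstimulated transgenic mouse T cells preincubated 60 min with compound, then stimulated with anti-CD3/anti-CD4-coated beads plus anti-CD28 for 18 h at 37 degrees C. IL-2 response read as EGFP and DsRed fluorescence by plate cytometry.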
* marks the source's active call; other numbers are inactive results; ? = inconclusive. Unless noted, the call rests on the fitted dose curve; in most records, active means well fitted activation curve with a large enough effect; inconclusive means small, poorly fitted or top-dose-only effect; inactive means no such curve, though single readings can be large or run the other way. This is a subset; count on the stated rates, not on these rows.

SMILES	FUS suppressor	PI5P4Ka inh	Abeta yeast res	IL-2 act
CN1[C@@H]2CC[C@H]1CC(OC(=O)C(CO)c1ccccc1)C2 (stereo not given in full)	-38%	0	-10%	0.3
C[C@H](CS)C(=O)N1CCC[C@H]1C(=O)O	-36%	2	-15%	1.1
Nc1ccn([C@@H]2O[C@H](CO)[C@@H](O)[C@@H]2O)c(=O)n1	-36%	8	-9%	-0.3
O=C(O)c1cc(Nc2cc(Cl)c3nonc3c2[N+](=O)[O-])ccc1O	-17%	?	-16%	0.1
Cc1ccc(S(=O)(=O)N2[C@@H](c3ccc(C(C)(C)C)cc3)C(C(=O)O)=CC[C@H]2c2cccc(Cl)c2)cc1	39%	?	-5%	3.7
CN(C)CCCN1c2ccccc2CCc2ccccc21	-20%	0	-16%	-0.3
Cc1ccccc1Nc1nc(N)nc(C)c1Br	3%	-2	-1%	-0.2
CN1[C@@H]2CC[C@H]1CC(OC(=O)[C@H](CO)c1ccccc1)C2 (stereo not given in full)	-41%	-7	-9%	1.1

By substructure, the entries above containing sulfur (2)
SMILES	FUS suppressor	PI5P4Ka inh	Abeta yeast res	IL-2 act
C[C@H](CS)C(=O)N1CCC[C@H]1C(=O)O	-36%	2	-15%	1.1
Cc1ccc(S(=O)(=O)N2[C@@H](c3ccc(C(C)(C)C)cc3)C(C(=O)O)=CC[C@H]2c2cccc(Cl)c2)cc1	39%	?	-5%	3.7

A draw from above in order of count of non-hydrogen atoms, low to high:
SMILES	FUS suppressor	PI5P4Ka inh	Abeta yeast res	IL-2 act
C[C@H](CS)C(=O)N1CCC[C@H]1C(=O)O	-36%	2	-15%	1.1
Nc1ccn([C@@H]2O[C@H](CO)[C@@H](O)[C@@H]2O)c(=O)n1	-36%	8	-9%	-0.3
CN1[C@@H]2CC[C@H]1CC(OC(=O)[C@H](CO)c1ccccc1)C2 (stereo not given in full)	-41%	-7	-9%	1.1

Taken from above:
In FUS suppressor, Cc1ccccc1Nc1nc(N)nc(C)c1Br reads 3%
In IL-2 act, Cc1ccc(S(=O)(=O)N2[C@@H](c3ccc(C(C)(C)C)cc3)C(C(=O)O)=CC[C@H]2c2cccc(Cl)c2)cc1 reads 3.7
In IL-2 act, Nc1ccn([C@@H]2O[C@H](CO)[C@@H](O)[C@@H]2O)c(=O)n1 reads -0.3
In IL-2 act, CN(C)CCCN1c2ccccc2CCc2ccccc21 reads -0.3

Screens: PubChem, National Center for Advancing Translational Sciences (NCATS)
